eIF4H FP inh – human eIF4H binding inhibitors, primary screen, translation initiation inhibitor project, biochemical, uHTS, fluorescence polarization; eIF4H fluorescence polarization binding assay; AID 2012, 2009; Eukaryotic translation initiation factor 4H (Homo sapiens), Q15056; inhibition, % at 35 µM; hit rate 0.94% among 290,000;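 active means 50% or more with normal probe brightness, or confirmed in later tests; about a fifth of its hits are not listed in these tables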;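 further: calls also rest on retests at 20 µM and on dose response follow-up; 0% = protein and probe with vehicle and 100% = probe without protein; strong numbers were not always called active; many hits fall short of the cut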
MT1-MMP act inh – blockers of MT1-MMP proenzyme processing, primary screen, HT1080 RFP-PRO-GFP cells, GFP/RFP fluorescence | Matrix metalloproteinase-14 (Homo sapiens), P50281 | GFP/RFP ratio fluorescence, overnight; percent of plate control window, DMSO zero | GFP/RFP ratio change, % at 20 µM | hit rate 0.061% among 360,000 | AID 651647, 2012;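 active means GFP/RFP ratio change of at least 30% with cell ATP level not reduced by more than half and red fluorescence within 50% of control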; further: strong numbers were not always called active
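Material – HT1080 RFP-PRO-GFP cells · Control set – DMSO wells and RFP-L50D-GFP cells · Incubation – overnight cell settling, then overnight compound exposure, 37 °C, 5% CO2 · Compound dosing – single-point 20 µM compound, 1% DMSO · Read-out – GFP/RFP fluorescence ratio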
Rce1 inh – yeast Rce1p protease inhibitors, primary screen, biochemical, fluorescence, cell-free homogeneous; calls only; CAAX prenyl protease 2 (Saccharomyces cerevisiae (strain ATCC 204508 / S288c)), Q03530; hit rate 0.27% among 290,000; yeast membranes, quenched prenylated peptide cleavage fluorescence;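 active means fall in fluorescence gain of 50% or more versus controls, with final raw signal at or below 3038400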;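 further: plate controls were neutral control wells for no effect and wells lacking membranes for full effect; tested at 10 µM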
Target sequence (Q03530 whole entry, looked up): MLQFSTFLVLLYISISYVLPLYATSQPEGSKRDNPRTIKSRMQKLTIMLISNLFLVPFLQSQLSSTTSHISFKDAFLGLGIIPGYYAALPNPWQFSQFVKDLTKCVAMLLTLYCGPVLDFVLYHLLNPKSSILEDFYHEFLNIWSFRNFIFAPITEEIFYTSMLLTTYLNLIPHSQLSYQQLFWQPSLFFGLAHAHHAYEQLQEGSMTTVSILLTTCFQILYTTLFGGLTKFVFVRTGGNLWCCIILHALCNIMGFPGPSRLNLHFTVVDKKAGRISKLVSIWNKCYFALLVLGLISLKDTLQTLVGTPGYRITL
Yeast UUG start – modulators of yeast start codon fidelity, primary screen, whole organism, S. cerevisiae, single point, plate reader; S. cerevisiae UUG-firefly luciferase reporter, luminescence/redox ratio; activity score, % at 18.7 µM; hit rate 0.13% among 350,000;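 active means replicate mean at a twofold rise or more, about +100% in these data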;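 further: firefly luciferase made from a UUG start codon reports start codon fidelity; reporter light over untreated wells divided by growth signal over untreated wells; some hits fall short of that in this replicate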
HIV Env fusion – inhibitors of HIV-1 Env-driven cell-cell fusion, primary screen, HeLa-JRFL effector, CEM21 target cells, luciferase; hit rate 1.1% among 360,000; inhibition, % at 12.3 µM; AID 651610, 2012;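 active means mean replicate inhibition score of at least 50 and every replicate individually at or above 50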;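 further: 0% = plate neutral controls and 100% = maraviroc near 300 nM; one replicate is shown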
CSC inhib – cancer stem cell viability inhibitors, primary screen, luminescence; cancer stem cell-like cells viability; inhibition, % at 7.5 µM; hit rate 1.1% among 300,000; AID 2717, 2010;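 active means mean at 75% or more and at least half the replicates too; tested in HMLE shEcad cells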;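 further: 0% = median of negative and 100% = median of positive control wells; the first replicate is given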
PABP polyA inh – PABP poly(A) RNA binding inhibitors, primary screen, biochemical, fluorescence polarization, uHTS; hit rate 1% among 290,000; AID 2014, 2009; inhibition, % at 35 µM;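 active means 50% or more with normal probe brightness, or confirmed in later tests; about a fifth of its hits are not listed in these tables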;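 further: calls also rest on retests at 20 µM and on dose response follow-up; controls were probe without protein and protein plus probe with vehicle; some compounds called inactive have numbers as strong as hits; many hits fall short of the cut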
Target sequence (P11940 whole entry, looked up): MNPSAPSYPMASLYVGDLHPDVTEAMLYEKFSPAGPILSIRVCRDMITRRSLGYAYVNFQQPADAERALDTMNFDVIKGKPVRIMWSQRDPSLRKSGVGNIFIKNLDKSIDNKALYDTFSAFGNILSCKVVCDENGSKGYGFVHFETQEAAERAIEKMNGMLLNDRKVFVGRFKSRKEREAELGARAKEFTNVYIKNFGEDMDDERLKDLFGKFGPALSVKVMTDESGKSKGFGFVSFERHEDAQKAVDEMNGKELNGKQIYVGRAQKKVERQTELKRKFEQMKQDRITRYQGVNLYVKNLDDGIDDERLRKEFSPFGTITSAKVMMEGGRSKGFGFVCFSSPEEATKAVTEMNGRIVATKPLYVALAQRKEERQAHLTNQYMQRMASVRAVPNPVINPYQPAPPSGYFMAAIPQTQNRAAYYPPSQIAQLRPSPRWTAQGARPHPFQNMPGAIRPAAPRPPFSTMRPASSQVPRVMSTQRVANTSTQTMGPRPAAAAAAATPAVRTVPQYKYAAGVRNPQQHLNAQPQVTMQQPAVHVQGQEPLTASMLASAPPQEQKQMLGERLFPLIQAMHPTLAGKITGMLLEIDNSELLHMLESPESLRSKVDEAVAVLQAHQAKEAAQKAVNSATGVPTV
eIF4H FP inh retest – also measured in eIF4H FP inh; calls as there; inhibition, %; compound at 20 µM; confirmation average;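 mean of two retest wells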
PABP polyA inh retest – also measured in PABP polyA inh; calls as there; inhibition, %; compound at 20 µM; confirmation repeats;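 mean of two retest wells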
MT1-MMP act inh RFP – further read-out of MT1-MMP act inh, marked with its call; RFP signal change, %; measured here: RFP expression control read;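 0 = vehicle wells; hits needed this value within 50% of zero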
* = called active by the depositor; i = inactive; nt = not tested or not shown. An unsorted share of the library. About 2.9% of those tested had a hit in this group.

SMILES	eIF4H FP inh	MT1-MMP act inh	MT1-MMP act inh RFP	Rce1 inh	Yeast UUG start	HIV Env fusion	CSC inhib	PABP polyA inh	others
Cc1cc(C)cc(C(=O)NCC(=O)NCc2ccc(S(N)(=O)=O)cc2)c1	9	-6	-2	i	-12	7	-3	-2
O=S(=O)(NCCc1ccccc1)c1ccc(F)cc1Br	nt	2	1	nt	-7	-21	nt	nt
CC1C(=O)CCN(C(C)(C)C)C1C (stereo not given)	-3	-2	0	i	-17	nt	-7	2
COc1ccc(CNS(=O)(=O)c2ccc(-c3ccc(=O)[nH]n3)o2)cc1	-8	3	6	i	-18	2	12	-1
CCOC(=O)C=Cc1ccc(C(=O)OCC)[nH]1	nt	-1	-5	nt	-29	4	nt	nt
CN(C)S(=O)(=O)c1cccc(C(=O)Nc2ccccc2C(=O)NC2CC2)c1	nt	-2	0	nt	-20	2	5	nt
CC(=O)Nc1nc(-c2cccc3ccccc23)cs1	-9	-3	-2	nt	-11	-6	-9	8
CCOc1ccccc1OCCCC(=O)NC1=NCCS1	4	3	1	i	0	nt	-9	1
CC(=O)Nc1ccc(S(=O)(=O)NCC(=O)OCC(=O)N2CCN(c3ccccc3)CC2)cc1	4	12	5	i	nt	nt	-9	-16
Cc1cc(C)n(-c2ccc(C(=O)Nc3ccccn3)cc2)n1	-16	8	1	i	-46	-76	7	0
Cc1nn(C)c(C)c1S(=O)(=O)N1CCC(C(=O)NC2CCCCC2)CC1	-12	-3	0	i	-8	-58	8	0
Cc1cc(C)nc(NC(N)=NC2CCCCC2)n1	2	0	1	i	nt	-141	-10	16
Cn1c(Cn2cnc(Cl)c2Cl)nc2ccccc21	-1	2	2	i	-25	nt	-3	8
O=C1c2cnc3nc(SCc4ccccc4)nn3c2CC2c3ccccc3CCN12 (stereo not given)	-1	-1	-9	i	-6	-113	6	6
Cn1c(-c2cnn(-c3ccccc3)c2N)n[nH]c1=S	2	1	1	i	nt	-27	-5	-5
CCOC(=O)C1CCCN(C(=O)CN2C(=O)c3ccccc3C2=O)C1 (stereo not given)	1	2	4	i	-4	-73	-1	16
O=C(COC(=O)/C=C/c1ccc(F)cc1)NC1CCS(=O)(=O)C1 (stereo not given)	nt	2	1	nt	-12	0	nt	nt
CCc1c(C)nc2c(Br)cccc2c1SCCC#N	5	-10	-12	i	nt	-1	-5	9
COc1ccc(CCN(C)C(=S)Nc2cccc(C)c2)cc1OC	-18	1	2	i	-22	-1	nt	-4
O=C1OC(N2CCN(Cc3ccccc3)CC2)c2ccccc21 (stereo not given)	nt	-3	2	nt	-16	-35	18	nt
O=C(Cn1nnc(-c2ccccc2)n1)N=Nc1c(O)[nH]c2ccccc12	-5	-2	0	i	nt	-134	-18	4
O=C(Nc1sccc1C(=O)NCc1ccco1)c1cccnc1	34	-5	-2	i	nt	nt	-2	-9
CCOC(=O)N1CCC(NC(=O)c2cccn3c(=O)c4cc(Br)ccc4nc23)CC1	13	-5	1	i	-4	-14	-1	1
O=C1c2ccccc2-c2c1nc1c([n+]2[O-])CCCC1	6	-4	1	i	nt	nt	-15	1
Cc1c(C#N)c(NC(=O)c2cccc(Cl)c2)n(Cc2ccccc2)c1C	-10	-3	-4	i	3	nt	-1	0
CC(=O)NC(c1cccs1)c1cc([N+](=O)[O-])c2cccnc2c1O (stereo not given)	21	6	3	i	nt	7	99*	-3
O=NN(CCc1ccncc1)c1ccc(OCc2ccccc2)cc1	4	-10	-31	i	-17	12	18	10
CC(C)CCn1c(N2CCOCC2)nc2c1c(=O)n(CC(N)=O)c(=O)n2C	-10	2	2	i	-34	nt	nt	-3
CN(CC(=O)Nc1ccccc1C(=O)Nc1ccccc1)C1CCCCC1	nt	-1	-6	nt	-16	9	21	nt
Cc1sc2ncnc(NCC(C)(C)N3CCOCC3)c2c1C	-3	1	-25	i	nt	nt	-7	5
C=C1N(C)c2cc([N+](=O)[O-])c(N)cc2C1(C)C	14	36*	18*	i	nt	-3	2	-3
Cc1cc(C)nc(Sc2nc(Cl)nc(N(c3ccccc3)c3ccccc3)n2)n1	-3	0	4	i	-11	14	14	5
C=CCOC(=O)C1=C[C@@H](c2csc3ccccc23)[C@H](CCCO)[C@@H](OCC)O1	nt	-9	-4	i	-5	10	-3	nt
COC(=O)C1(C)NC(c2ccc(O)cc2)C2C(=O)N(c3ccccc3)C(=O)C21 (stereo not given)	-5	1	3	i	-15	-6	-7	2
O=[N+]([O-])c1ccc(S(=O)(=O)Nc2ccncc2)cc1	5	-2	1	i	9	3	nt	7
O=C(COc1ccccc1)Nc1nc(-c2ccncc2)cs1	-10	3	-4	i	-6	29	-8	33

Looked up by compound from the entries so far:
SMILES	eIF4H FP inh	MT1-MMP act inh	MT1-MMP act inh RFP	Rce1 inh	Yeast UUG start	HIV Env fusion	CSC inhib	PABP polyA inh	others
CC(C)CCn1c(N2CCOCC2)nc2c1c(=O)n(CC(N)=O)c(=O)n2C	-10	2	2	i	-34	nt	nt	-3
Cc1c(C#N)c(NC(=O)c2cccc(Cl)c2)n(Cc2ccccc2)c1C	-10	-3	-4	i	3	nt	-1	0
Cc1sc2ncnc(NCC(C)(C)N3CCOCC3)c2c1C	-3	1	-25	i	nt	nt	-7	5

Following part:
SMILES	eIF4H FP inh	MT1-MMP act inh	MT1-MMP act inh RFP	Rce1 inh	Yeast UUG start	HIV Env fusion	CSC inhib	PABP polyA inh	others
CC1(C)C[C@@H]1C(=O)N/C(=C\CCCCSC[C@H](N)C(=O)O)C(=O)O	nt	-3	1	nt	-9	nt	-6	nt
COc1ccc(-n2nc3c(c2NC(=O)c2ccccc2S(=O)(=O)C(F)F)CS(=O)(=O)C3)cc1	3	-1	-1	i	-7	-11	-13	2
Cc1nc2ccc(Br)cn2c1C(=O)N/N=C\c1ccccc1[N+](=O)[O-]	2	-2	0	i	nt	9	-6	6
N=c1sccn1CC(=O)Nc1ccc(SC(F)F)cc1	0	4	4	i	-18	-8	2	11
O=C(Nc1ccc(F)c(Cl)c1)c1csc([C@H]2C[C@H](O)[C@@H](CO)O2)n1	nt	4	-8	nt	-9	-49	nt	nt
OC(CCc1cccc(Cl)c1)c1cccs1 (stereo not given)	0	0	-1	i	nt	-11	-4	4
Cc1ccc(-n2nc3c(=O)n(CC(=O)NCCCc4ccccc4)nc(C)c3c2C)cc1	-10	6	-11	i	-2	-32	-15	2
C=CCN(c1ccccc1C(=O)NCC(=O)O)S(=O)(=O)c1ccc(C)cc1	-10	-1	0	i	nt	6	-20	5
Cc1ccc(S(=O)(=O)N2CCOCC2)cc1NC(=O)COC(=O)CSc1ccc(Br)cc1C	-7	0	0	i	9	-33	-12	-6
COc1ccc(/C=N/N2C(=O)C3C4C=CC(CC4)C3C2=O)c(OC)c1 (stereo not given)	81	3	2	i	nt	-7	-6	1	eIF4H FP inh retest=25;PABP polyA inh retest=23
CCOC(=O)NN1C(=O)c2ccccc2NC1c1ccccn1 (stereo not given)	5	-3	0	i	-16	4	-16	-4
CC(C)Cn1c(N)c(C(=O)CSc2cc(Cl)ccc2Cl)c(=O)n(C)c1=O	10	nt	nt	nt	nt	nt	37	-12
O=C(N/N=C/c1ccsc1)C1CC1	3	-3	-5	i	nt	-19	nt	-3
COc1ccc(CN(C)C(=O)[C@H]2O[C@@H](n3ccc(N)nc3=O)[C@H](O)[C@@H]2O)cc1OC	nt	4	3	nt	-10	2	nt	nt
CCCCC(=O)Nc1ccc(C(=O)Nc2nnc(COC)s2)cc1	-10	7	0	i	-3	nt	5	12
O=C(NCc1cc(C(F)(F)F)ccc1F)C1CCC(=O)N(C2CC2)C1 (stereo not given)	25	1	4	i	7	-9	-7	2
COCCNC(=O)CN1CCC(n2c(C)nc3cc(C(F)(F)F)ccc32)CC1	2	4	6	i	-20	-20	-17	5
CCC1=NN2C(=N)/C(=C\c3ccc(OCCOc4ccccc4OC)cc3)C(=O)N=C2S1	15	1	1	i	-19	9	nt	8
CN(C)S(=O)(=O)n1cnc([C@H]2c3c(ncn3Cc3ccccc3)C[C@H]3COC(=O)[C@@H]32)c1	nt	-2	0	nt	-4	-3	-6	nt
CCN(CC(=O)Nc1c(F)cccc1F)C(=O)CCc1c[nH]c2ccccc12	3	0	-1	i	nt	-2	-7	-14
Cc1nn(-c2ccc(Cl)cc2)c(Cl)c1/C=C(\C#N)C(N)=O	6	-8	-4	i	-1	nt	11	-3
C=CCc1c(C)nc(SCC(=C)C)[nH]c1=O	-6	3	9	i	-5	-27	-17	-9
O=C(O)/C=C/c1ccc(S(=O)(=O)Nc2ccc3[nH]c(=O)[nH]c3c2)cc1	24	-7	-1	i	-12	23	3	20
O=C(Nc1nc2ccc(F)cc2s1)c1ccc([N+](=O)[O-])o1	nt	3	-11	nt	-23	-174	nt	nt
COC(=O)c1cc2sccc2n1Cc1nc(-c2ccc(Cl)cc2)oc1C	-4	3	1	i	-15	-20	-2	2
NC(=O)[C@@H]1CCCNc2c(I)cc([N+](=O)[O-])cc2C(=O)N[C@@H](CCC(=O)O)C(=O)N[C@@H](CO)C(=O)N1	7	-2	-1	nt	22	nt	-5	4
CC(C)CC1CC(=O)OC1(C)C(=O)CSc1nc2ccccc2s1 (stereo not given)	0	1	-1	i	-9	nt	0	12
CC1CC(C)CN(CCCNC(=O)C2CCC(=O)N2C2CCCC2)C1 (stereo not given)	-6	0	3	i	-16	nt	1	1
O=C(c1c(F)cccc1F)N1CCN(CCOc2ccccc2)CC1	-6	2	-5	i	4	17	-24	0
Cc1ccccc1C(=O)Nc1cccc(NC(=O)c2ncn[nH]2)c1	-3	0	4	i	nt	2	-10	7
O=C(CC[C@H]1O[C@@H](n2cnc3c(NC(=O)c4ccccc4)ncnc32)[C@H](O)[C@@H]1O)NCc1ccc2c(c1)OCO2	nt	2	1	nt	-5	-13	nt	nt
Cc1c(NC(=O)C(C)OC(=O)CNC(=O)c2ccc(C(C)(C)C)cc2)c(=O)n(-c2ccccc2)n1C (stereo not given)	-4	3	2	nt	-7	-219	-10	-7
Cc1ccccc1NS(=O)(=O)c1ccc(C(=O)NCCCN2CCOCC2)cc1	nt	10	1	i	nt	1	-6	nt
COc1cccc(C2NC(=O)NC(C)=C2C(=O)OCCSC)c1OC (stereo not given)	nt	1	-1	i	-8	-4	8	nt
Cn1cccc1/C=C1\Cc2ccccc2C1=O	-2	-6	-2	i	-3	-95	1	-14
O=C(CSc1ccc(F)cc1)N1CCOCC1	-13	1	1	i	-23	-1	-10	-6
CCn1cc(C(=O)N2CCc3ccccc32)c(=O)c2cc(S(=O)(=O)N(C)C3CCCCC3)ccc21	-4	-4	-3	i	nt	10	-14	0
Cc1nc2c(sc(=S)n2Cc2ccco2)c(=O)n1CC(=O)Nc1ccccc1Cl	-11	-1	3	i	-16	-14	10	-6
CSCCC(NC(=O)c1ccco1)C(=O)OC(C)C(=O)NC(=O)NC1CCCCC1 (stereo not given)	7	5	-4	i	10	12	0	-3
O=C(NCn1ccc(=O)[nH]c1=S)c1ccccc1	-5	2	3	i	-16	nt	-14	2
Cc1ccc(-c2ccc(/C=N\n3cnnc3)o2)c(Br)c1	0	-1	-3	i	-8	22	8	5
Cc1nc(-c2ccccc2)nc2[nH]c(=O)n(-c3ccccc3)c(=O)c12	4	0	-6	i	-9	-24	-12	-1
O=C(Cc1ccccc1)Nc1ccc(N2CCCCC2)cc1	2	5	3	i	nt	-86	2	-4

Source: PubChem
